Calb FLC – C. albicans growth inhibition with fluconazole, primary screen, CaCi-2 strain, Alamar Blue fluorescence; C. albicans CaCi-2 (fluconazole-resistant clinical isolate) + fluconazole, 48 h; growth inhibition, % (test concentration not listed); actives 0.57% (n = 300,000);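 active = most replicates above 75%; inconclusive = exactly half above 75%; inactive = most below 75%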;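 note: all wells also contain fluconazole at 8 µg/ml as a sub-toxic cotreatment; 0% = median of DMSO wells and 100% = median of geldanamycin control wells; wells of about 8 µL received 7.5 nL stock; the first replicate is given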
MLL AF4-AF9 inh – inhibitors of AF4 peptide binding to AF9, primary screen, biochemical, AlphaScreen, biotin-AF4 peptide, FLAG-AF9, single point; Protein AF-9 (Homo sapiens), P42568; inhibition, % at 10 µM; actives 0.47% (n = 350,000); AID 651704, 2012;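 active = every replicate reaching a set inhibition limit, whatever the replicate mean, cut at about 25% in these data; inconclusive = mean inhibition reaches that limit but some replicates miss it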;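 note: 0% = plate neutral control median and 100% = total signal loss; the record names both 10 and 1 µM as test concentration; the first replicate is given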
Target sequence (P42568 whole entry, looked up): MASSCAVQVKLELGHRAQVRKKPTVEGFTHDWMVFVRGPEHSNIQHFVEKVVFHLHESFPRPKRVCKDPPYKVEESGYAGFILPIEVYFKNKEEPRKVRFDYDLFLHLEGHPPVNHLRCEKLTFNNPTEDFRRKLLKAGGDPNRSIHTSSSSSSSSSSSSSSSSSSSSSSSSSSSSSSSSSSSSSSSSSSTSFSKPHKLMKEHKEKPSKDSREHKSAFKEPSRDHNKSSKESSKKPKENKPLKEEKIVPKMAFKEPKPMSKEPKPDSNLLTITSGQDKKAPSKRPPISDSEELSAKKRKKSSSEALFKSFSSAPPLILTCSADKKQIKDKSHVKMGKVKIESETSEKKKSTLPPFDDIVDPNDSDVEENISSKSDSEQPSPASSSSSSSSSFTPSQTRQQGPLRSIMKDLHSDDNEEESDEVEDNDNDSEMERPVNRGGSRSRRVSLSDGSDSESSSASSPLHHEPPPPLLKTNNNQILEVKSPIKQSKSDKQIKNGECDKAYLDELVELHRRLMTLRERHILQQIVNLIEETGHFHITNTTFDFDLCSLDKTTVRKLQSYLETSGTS
FGF22 binding – binders of human FGF22 protein, primary screen, FGF22 synaptogenesis inhibitor project, biophysical, thermal shift, single point | recombinant FGF22 thermal shift, SYPRO orange fluorescence; percent of sucrose octasulfate shift, DMSO zero | calls only at 9.99 µM | actives 1.5% (n = 340,000) | AID 651658, 2012;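 active = melting point raised past a set limit in the mean and every replicate; inconclusive = no clear call; three in four hits are not shown here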
Target sequence (Q9HCT0 whole entry, looked up): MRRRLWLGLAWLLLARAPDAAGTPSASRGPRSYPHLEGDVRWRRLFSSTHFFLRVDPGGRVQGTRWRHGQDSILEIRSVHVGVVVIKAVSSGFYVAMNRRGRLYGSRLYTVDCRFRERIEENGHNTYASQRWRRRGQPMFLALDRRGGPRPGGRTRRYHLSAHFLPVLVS
Beta cell apopt – inhibitors of cytokine-induced beta cell apoptosis, primary screen, luminescence. INS-1E cytokine-induced death, ATP luminescence, 48 h; percent of positive-control rescue, neutral wells zero. protection from apoptosis, % (no concentration beside the values). actives 0.8% (n = 300,000);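 active = all replicates at 75% or more, or half of them and the mean; inconclusive = half reach 75% but not the mean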;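 note: 0% = cytokine-treated negative control wells and 100% = positive control rescue; higher means more ATP so stronger rescue from cytokine killing; wells of about 40 µL received 100 nL stock; the first replicate is given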
ALR inh – inhibitors of human ALR sulfhydryl oxidase, primary screen, biochemical, H2O2 detection, HRP-luminol luminescence, single point; FAD-linked sulfhydryl oxidase ALR (Homo sapiens), P55789; purified ALR, DTT oxidation; inhibition, % (concentration not given with the values); actives 3.8% (n = 290,000); AID 485317, 2010;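 active = mean and each replicate at 75% or more; inconclusive = only one of the two met; inactive = neither met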;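 note: stock transfer was 7.5 nL into about 7.5 µL; 0% = neutral wells and 100% = wells with inactivated enzyme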
Target sequence (P55789 whole entry, looked up): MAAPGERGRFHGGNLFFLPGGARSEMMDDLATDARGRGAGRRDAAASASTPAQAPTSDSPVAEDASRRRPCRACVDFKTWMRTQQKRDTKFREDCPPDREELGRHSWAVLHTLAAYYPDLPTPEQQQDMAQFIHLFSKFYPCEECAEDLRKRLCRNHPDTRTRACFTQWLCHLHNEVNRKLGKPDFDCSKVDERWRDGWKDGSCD
rRNA inh HTS – reduced GFP signal of wild-type E. coli, primary screen, bacterial rRNA inhibitor project, GFP/RFP fluorescence, OD600, single point; GFP signal change (wild-type ribosome), % (no concentration beside the values); E. coli WT GFP vs humanized-ribosome RFP mutants, 24 h; hits give low values; DMSO median 0, no signal -100; actives 1.6% (n = 350,000); AID 720706, 2013;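 active = significant combined selectivity score with lowered wild-type GFP, culture density cut under 30%, mutant RFP and density less affected; inactive = any of these conditions unmet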; note: one replicate is shown; some compounds called inactive have numbers as strong as hits
T cruzi inh – inhibitors of intracellular T. cruzi growth, primary screen, luminescence, NIH3T3 host cells; T. cruzi beta-gal in NIH3T3, 90 h; inhibition, % (concentration not given with the values); actives 1.4% (n = 300,000);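 active = mean inhibition across valid replicates above about 55%, limit read from the data; inconclusive = mean below that limit but half or more replicates reach it; inactive = mean below it, under half of replicates reach it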;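 note: signal also drops with host cell toxicity which is not excluded here; 0% = plate median of DMSO wells and 100% = zero luminescence signal; higher percent means less beta-gal luminescence so fewer parasites; stock transfer was 50 nL into about 50 µL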
RanGTP-Impb inh – inhibitors of RanGTP-importin-beta interaction, primary screen, biochemical, FRET, CFP-Ran, YFP-importin-beta, homogeneous; Ran GTPase (GTP-bound) - importin-beta complex; cell-free CFP-Ran/YFP-importin-beta FRET ratio; inhibition, % (test concentration not listed); actives 1.1% (n = 300,000); AID 2216, 2009;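 active = most replicates above 15%; inconclusive = exactly half above 15%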;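 note: 0% = DMSO wells and 100% = Ran loaded with GDP instead of GTP; wells of about 40 µL received 100 nL stock; the first replicate is given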
rRNA inh HTS OD600 – also measured in rRNA inh HTS; calls as there; OD600 change, %; measured here: OD600 growth;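 optical density of the mix in the first replicate; 0 = DMSO median and -100 = no signal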
rRNA inh HTS RFP – recorded beside rRNA inh HTS, whose call it bears; RFP signal change, %; measured here: RFP humanized mutant strains;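 first replicate; 0 = DMSO median and -100 = no signal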
Starred values were filed as active, the others as inactive; i = inactive; ? = inconclusive; nt = no result given. A portion of the library; the hit share may differ from the screen's.

SMILES	Calb FLC	MLL AF4-AF9 inh	FGF22 binding	Beta cell apopt	ALR inh	rRNA inh HTS	rRNA inh HTS OD600	rRNA inh HTS RFP	T cruzi inh	RanGTP-Impb inh
Cc1ccc(Cl)cc1N1CCN(S(=O)(=O)c2cnc[nH]2)CC1	-5.6	1.6	i	-3.5	-0.3	-0.1	3.0	-1.4	-23.3	2.6
CCN(C(=O)c1cnc2scc(C)n2c1=O)c1ccccc1C	-6.2	-13.2	i	-0.7	-5.2	0.2	12.2	-3.4	-0.3	0.6
CCCn1c(CC)nc([N+](=O)[O-])c1S(=O)(=O)c1ccccc1	-40.2	nt	nt	-29.9	25.9	nt	nt	nt	-3.1	-2.8
CC(=O)Nc1ccc(S(=O)(=O)NCCNC(=O)c2ccccc2F)cc1	1.4	nt	nt	6.0	nt	nt	nt	nt	-1.7	-2.0
CCc1cccc(C)c1NC(=S)NCCc1c(C)[nH]c2ccc(C)cc12	-14.1	44.3*	i	3.3	26.4	-6.0	-19.6	7.3	21.5	0.3
COc1ccc(S(=O)(=O)N2CCOCC2)cc1NC(=O)CN(C)CC(=O)Nc1cccc(F)c1	nt	-0.9	i	2.6	nt	7.3	14.0	9.3	nt	nt
Cc1cc(=O)[nH]c(SCC(=O)Nc2ccc(C)c(S(=O)(=O)N3CCCCC3)c2)n1	10.7	-1.2	i	-0.4	70.9	-2.4	-2.1	1.1	-2.5	-4.9
O=C(COC(=O)C12CC3CC(CC(C3)C1)C2)NNC(=O)c1ccccc1	nt	-0.6	i	-8.4	0.3	-10.9	-7.9	5.2	nt	nt
CCOC(=O)c1ccc(S(=O)(=O)NNC(=O)c2ccc3c(c2)nc(C)n3CC)cc1	-4.7	-1.5	i	1.6	8.1	-4.6	-8.8	-2.2	0.8	-1.7
CC(C)n1c(SCC(=O)N2CCCCC2)nc2c1c(=O)n(C)c(=O)n2C	-4.4	-0.3	i	1.5	2.9	2.9	4.9	-0.9	6.5	1.5
Clc1ccc(-c2nc3ccccn3c2CN2CCCCC2)cc1	nt	1.7	i	-7.1	-1.6	-4.1	-4.0	-2.7	32.4	nt
CCCc1nn2c(=O)cc(CSCC(=O)Nc3cccc(OC)c3)nc2s1	15.8	-0.5	i	-8.9	55.3	4.2	10.8	-1.1	-10.5	?
COc1cc(NC(=O)Cc2ccccc2)cc(OC)c1	-0.7	nt	nt	-0.1	-7.9	nt	nt	nt	0.5	-1.2
COc1ccc(NC(=O)CNC(=O)Cc2ccccc2)cc1	6.5	0.9	i	1.9	-2.3	1.8	5.9	1.1	-7.7	0.6
CC(C)n1nc(C(=O)OCC(=O)c2c[nH]c3ccccc23)c2ccccc2c1=O	-6.9	nt	nt	-2.6	-5.2	nt	nt	nt	9.5	?
COCC(C)NC(C(=O)Nc1cccc(C(C)=O)c1)c1ccccc1 (stereo not drawn)	-12.4	-3.0	nt	-5.7	0.7	6.7	-6.2	-8.1	4.4	8.1
Cc1ccc(S(=O)(=O)N2[C@@H](c3ccc(Br)cc3)C(C(=O)O)=C[C@H]2C(C)(C)C)cc1	nt	-1.1	i	1.7	9.2	-17.9	-8.9	-5.9	nt	nt
CCS(=O)(=O)c1ccc2c(c1)N(S(C)(=O)=O)CC(C(=O)NN)O2 (stereo not drawn)	-6.2	0.0	nt	-5.7	-12.6	14.8	6.4	-2.5	-0.8	nt
CCOC(=O)C[C@H]1c2ccccc2S(=O)(=O)N1C1CC1	-2.9	0.2	i	-3.5	2.3	6.7	15.2	1.3	-10.0	3.5
CC(C)Cn1c(CN2CCN(c3ccccc3F)CC2)nc2c1c(=O)[nH]c(=O)n2C	1.4	-1.1	i	nt	-4.3	13.8	11.9	-1.2	-6.2	8.7
O=C(COC(=O)c1cnccn1)NCCc1ccccc1	-1.2	nt	nt	-9.0	-5.0	nt	nt	nt	-14.4	6.1
CN(C)C(=O)Cn1nc(-c2ccccc2)c2ccccc2c1=O	47.1	nt	nt	-0.2	-1.5	nt	nt	nt	10.7	?
CCOc1ccc(CNc2ccc(CNc3ncn[nH]3)cc2)cc1	102.0*	1.5	i	-6.6	3.2	-2.0	6.4	5.4	-6.0	-1.3
COCCNC(=O)C1CCC(CNS(=O)(=O)c2ccccc2)CC1 (stereo not drawn)	-1.0	1.4	i	-3.7	2.0	8.4	3.9	-5.1	-3.9	1.2
Cc1cccc(NNC(=O)C(=O)NNc2cccc(C)c2)c1	99.7*	-1.4	nt	0.8	98.3*	8.5	-2.5	0.9	16.5	-0.7

In the list so far, these have two or more sulfur atoms.
SMILES	Calb FLC	MLL AF4-AF9 inh	FGF22 binding	Beta cell apopt	ALR inh	rRNA inh HTS	rRNA inh HTS OD600	rRNA inh HTS RFP	T cruzi inh	RanGTP-Impb inh
Cc1cc(=O)[nH]c(SCC(=O)Nc2ccc(C)c(S(=O)(=O)N3CCCCC3)c2)n1	10.7	-1.2	i	-0.4	70.9	-2.4	-2.1	1.1	-2.5	-4.9
CCCc1nn2c(=O)cc(CSCC(=O)Nc3cccc(OC)c3)nc2s1	15.8	-0.5	i	-8.9	55.3	4.2	10.8	-1.1	-10.5	?
CCS(=O)(=O)c1ccc2c(c1)N(S(C)(=O)=O)CC(C(=O)NN)O2 (stereo not drawn)	-6.2	0.0	nt	-5.7	-12.6	14.8	6.4	-2.5	-0.8	nt

Next section:
SMILES	Calb FLC	MLL AF4-AF9 inh	FGF22 binding	Beta cell apopt	ALR inh	rRNA inh HTS	rRNA inh HTS OD600	rRNA inh HTS RFP	T cruzi inh	RanGTP-Impb inh
N#Cc1c(-c2ccc3c(c2)OCO3)csc1N	32.8	nt	nt	-4.8	?	nt	nt	nt	7.8	4.9
O=C1C2C(C(=O)N1/N=C/c1cccc([N+](=O)[O-])c1)C1C=CC2C12CC2 (stereo not drawn)	-0.9	4.6	i	-9.5	2.6	nt	nt	nt	-11.1	-1.5
Cc1ccc(C)c2c1[nH]c1ccc([N+](=O)[O-])cc12	6.8	nt	nt	26.5	-0.7	nt	nt	nt	31.2	3.8
COCCCNC(=O)CCc1c(C)nc2c(-c3ccc(F)cc3)c(C)nn2c1C	12.8	-2.7	i	-2.0	-2.7	-8.6	-11.6	0.0	7.5	-2.3
Cc1ccc(C(=O)COC(=O)COc2ccccc2C)cc1	10.6	1.2	i	4.3	-7.8	5.5	2.1	3.0	-22.5	0.2
O=C(O)c1ccc(N2CC3CC(C2)c2cccc(=O)n2C3)c(NS(=O)(=O)c2cccc(C(F)(F)F)c2)c1 (stereo not drawn)	3.0	1.6	i	-0.5	-5.4	12.4	14.3	-0.9	-17.8	?
CCCc1cc(=O)oc2cc(OCC(=O)Nc3ccc(CN4CCOCC4)cc3)c(Cl)cc12	-3.7	-0.8	i	-4.2	-3.9	0.1	0.3	-1.2	-0.8	4.7
CNS(=O)(=O)c1cccc(C(=O)OCC(=O)N(CCC#N)c2ccccc2)c1	1.1	-1.8	i	-1.4	-1.8	8.4	11.6	-10.5	-5.5	10.3
O=C(NCc1ccccn1)C1CCN(S(=O)(=O)c2cc(Cl)ccc2Cl)CC1	-13.9	-0.1	i	-6.5	-0.7	-2.1	-13.5	1.6	0.1	-1.2
O=C(Cc1ccccc1)NCc1nc2ccccc2[nH]1	-1.3	nt	nt	-0.7	2.2	nt	nt	nt	-1.6	-0.5
O=c1[nH]cnc2scc(-c3cccs3)c12	2.2	nt	nt	0.6	-1.5	nt	nt	nt	-2.1	-2.2
CC1CC2(CCCC2)Nc2ccc(F)cc21 (stereo not drawn)	7.2	2.6	i	-5.6	3.2	7.0	15.8	2.3	-3.1	-2.7
COc1ccc(CCN2CC(C(=O)N(C)CC(=O)Nc3cccc(F)c3)CC2=O)cc1OC (stereo not drawn)	0.5	-2.0	i	-0.1	-2.5	2.0	-1.4	0.1	1.8	0.8
CCc1onc(C)c1C(=O)Nc1ccc2c(c1)OCO2	2.4	-0.1	i	-0.8	nt	19.2	13.8	1.6	11.6	0.9
CN(C)S(=O)(=O)c1cccc(NC(=O)COC(=O)c2ccc([N+](=O)[O-])o2)c1	-19.6	nt	nt	-5.7	3.0	nt	nt	nt	9.5	-0.3
Cc1nnc(SCC2=C(C(=O)O)N3C(=O)C(NC(=O)Cn4nc(C(F)F)cc4C)C3SC2)s1 (stereo not drawn)	2.9	-13.1	i	-1.0	-17.3	13.6	4.0	-1.2	3.2	?
Cc1ccccc1-c1cc(C(=O)O)n(CC2CC(c3cccnc3)=NO2)n1 (stereo not drawn)	nt	-3.5	i	-6.7	-9.1	10.0	4.4	-1.0	nt	nt
CCOc1ccc(C(=O)N/N=C(/C)C2C(=O)c3ccccc3C2=O)cc1	11.2	3.4	i	4.5	24.4	-13.9	-17.6	-5.9	-1.1	-3.2
CCC1CCc2sc(C(=O)NCC(c3ccc(OC)cc3)N3CCOCC3)cc2C1 (stereo not drawn)	nt	1.9	i	1.1	nt	-2.9	-27.9	31.5	nt	nt
O=C(CSc1nnc(-c2ccccc2)n1Cc1ccco1)NCc1ccc2c(c1)OCO2	-22.4	nt	nt	-10.4	?	nt	nt	nt	-9.0	0.3
COc1ccc(OC)c(C2NC(=S)NC3=C2N2CCC3CC2)c1 (stereo not drawn)	-6.4	-2.8	i	7.2	nt	15.8	7.4	2.1	-0.2	1.1
CC(=O)Nc1ccc(NC(=O)[C@@H](NC(=O)N2C[C@H]3C[C@@H](C2)c2cccc(=O)n2C3)C(C)C)cc1	-1.4	-0.5	i	-7.8	-5.8	-5.2	-2.8	2.9	-7.0	-5.8
O=C(Nc1ccnc(-c2cccnc2)n1)c1ccccc1Cl	-4.0	nt	nt	nt	3.1	nt	nt	nt	29.1	-0.3
Cc1ccc(Cn2nnc3c(=O)n(Cc4cccc(C)c4)cnc32)cc1	-15.8	nt	nt	4.5	nt	nt	nt	nt	26.2	?
Cc1ccc(C)c(NC(NC(=O)c2cccnc2)C(Cl)(Cl)Cl)c1 (stereo not drawn)	?	nt	nt	-2.5	-9.0	nt	nt	nt	7.1	?
O=C1CCCC2=C1C(c1ccncc1)Nc1ccccc1N2 (stereo not drawn)	-2.9	nt	nt	-0.1	31.5	nt	nt	nt	-6.1	-1.5
Cc1cccc(C)c1NC(=O)CN(C)C(=O)CSCc1c(C)noc1C	-2.0	4.9	i	-8.8	-34.1	1.0	-1.6	-2.4	1.6	nt

As a short view, 2 of the compounds above.
SMILES	Calb FLC	MLL AF4-AF9 inh	FGF22 binding	Beta cell apopt	ALR inh	rRNA inh HTS	rRNA inh HTS OD600	rRNA inh HTS RFP	T cruzi inh	RanGTP-Impb inh
N#Cc1c(-c2ccc3c(c2)OCO3)csc1N	32.8	nt	nt	-4.8	?	nt	nt	nt	7.8	4.9
O=C1C2C(C(=O)N1/N=C/c1cccc([N+](=O)[O-])c1)C1C=CC2C12CC2 (stereo not drawn)	-0.9	4.6	i	-9.5	2.6	nt	nt	nt	-11.1	-1.5

From PubChem
